Calb FLC: affects C. albicans growth with fluconazole | C. albicans CaCi-2 (fluconazole-resistant clinical isolate) + fluconazole, Alamar Blue growth, 48 h | growth inhibition, % (concentration not given with the values) | actives 0.57% (n = 300,000) | AID 1979;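 active = most replicates above 75%; inconclusive = exactly half above 75%; inactive = most below 75%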;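 also: all wells also contain fluconazole at 8 µg/ml as a sub-toxic cotreatment; 0% = median of DMSO wells and 100% = median of geldanamycin control wells; wells of about 8 µL received 7.5 nL stock; the first replicate is given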
MLL AF4-AF9 inh: blocks AF4 peptide binding to human AF9; AlphaScreen, biotin-AF4 peptide binding to FLAG-AF9; P42568; inhibition, % at 10 µM; AID 651704; actives 0.47% (n = 350,000);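 active = every replicate reaching a set inhibition limit, whatever the replicate mean, cut at about 25% in these data; inconclusive = mean inhibition reaches that limit but some replicates miss it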;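 also: 0% = plate neutral control median and 100% = total signal loss; the record names both 10 and 1 µM as test concentration; the first replicate is given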
Target sequence (P42568 whole entry, looked up): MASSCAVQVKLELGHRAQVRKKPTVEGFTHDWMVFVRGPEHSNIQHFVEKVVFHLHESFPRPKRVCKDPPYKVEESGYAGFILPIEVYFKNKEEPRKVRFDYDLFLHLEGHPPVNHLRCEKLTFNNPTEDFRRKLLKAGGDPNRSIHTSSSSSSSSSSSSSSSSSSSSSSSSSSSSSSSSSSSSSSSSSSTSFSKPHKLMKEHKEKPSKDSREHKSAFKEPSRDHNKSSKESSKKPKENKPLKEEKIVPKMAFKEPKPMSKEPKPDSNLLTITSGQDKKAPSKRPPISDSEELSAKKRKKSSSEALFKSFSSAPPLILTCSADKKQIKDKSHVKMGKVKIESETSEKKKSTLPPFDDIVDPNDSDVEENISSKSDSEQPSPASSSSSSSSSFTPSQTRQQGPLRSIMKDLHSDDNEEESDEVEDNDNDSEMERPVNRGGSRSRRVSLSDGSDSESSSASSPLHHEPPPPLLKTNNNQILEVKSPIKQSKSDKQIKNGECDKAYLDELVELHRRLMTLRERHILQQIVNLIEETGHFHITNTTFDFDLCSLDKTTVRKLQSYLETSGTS
LANA-H2B inh: blocks KSHV LANA binding to histone H2A/H2B. Q9QR71. cell-free LANA-H2A/H2B peptide, fluorescence polarization. inhibition, % (no concentration beside the values). actives 0.6% (n = 320,000); in the data active = inhibition mostly above about 10%, no sharp cut-off; inactive = mostly below about 6.7%;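 also: stock transfer was 7.5 nL into about 10 µL; 0% = median of vehicle wells and 100% = median of positive control wells; one replicate is shown; the record names a cut of 25% in any replicate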
Vif TR-FRET: HIV-1 Vif–A3G interaction blockers – biochemical, TR-FRET, GST-Vif 1-94, biotin-A3G peptide, dose response retest, primary screen (AID 1117319). actives 0.57% (n = 260,000). one-dose inhibition, %; IC50 in µM for titrated hits. TR-FRET GST-Vif / biotin-A3G peptide binding; higher % means a stronger effect; test concentration not given here; strong numbers were not always called active;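 active = above the screen mean plus three standard deviations and confirmed in dose response; inconclusive = results disagree or hit not tested in dose response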;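 also: Vif residues 1-94 fused to GST binding biotinylated APOBEC3G peptide 110-148; 0% = full assay without inhibitor and 100% = GST in place of GST-Vif; retest series ran down from 100 µM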
RanGTP-Imp inh: disruptors of Ran-importin-beta complex formation – biochemical, FRET, CFP-Ran, YFP-importin-beta, homogeneous, primary screen. cell-free CFP-Ran/YFP-importin-beta FRET ratio. inhibition, % (no concentration beside the values). actives 1.1% (n = 300,000);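 active = most replicates above 15%; inconclusive = exactly half above 15%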;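 also: 0% = DMSO wells and 100% = Ran loaded with GDP instead of GTP; wells of about 40 µL received 100 nL stock; the first replicate is given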
Beta apoptosis: beta cell apoptosis inhibition | INS-1E cytokine-induced death, ATP luminescence, 48 h; percent of positive-control rescue, neutral wells zero | protection from apoptosis, % (concentration not given with the values) | actives 0.8% (n = 300,000) | AID 435005;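 active = all replicates at 75% or more, or half of them and the mean; inconclusive = half reach 75% but not the mean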;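 also: 0% = cytokine-treated negative control wells and 100% = positive control rescue; higher means more ATP so stronger rescue from cytokine killing; wells of about 40 µL received 100 nL stock; the first replicate is given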
T cruzi repl: blocks replication of Trypanosoma cruzi | inhibition, % (test concentration not listed) | actives 1.4% (n = 300,000) | AID 1885 | T. cruzi beta-gal in NIH3T3, luminescence, 90 h;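 active = mean inhibition across valid replicates above about 55%, limit read from the data; inconclusive = mean below that limit but half or more replicates reach it; inactive = mean below it, under half of replicates reach it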;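 also: signal also drops with host cell toxicity which is not excluded here; 0% = plate median of DMSO wells and 100% = zero luminescence signal; higher percent means less beta-gal luminescence so fewer parasites; stock transfer was 50 nL into about 50 µL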
Bfl-1 A1 inh: inhibitors of the anti-apoptotic protein A1, read as caspase activation. MEF A1-2A-BIM cells, Caspase-Glo 3/7 luminescence, 3 h; percent of clofoctol response, vehicle zero. caspase activation, % (no concentration beside the values). actives 0.066% (n = 330,000). AID 2462;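 active = over half of replicate activation scores above 10%, or exactly half above 10 with the replicate mean above 10; inconclusive = replicate mean below 10 yet half the replicates above 10; inactive = over half of replicates below 10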;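 also: wells of about 30 µL received 50 nL stock; many hits fall short of the cut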
The depositor's hits bear a star; ? = inconclusive; . = not tested or not shown; & = joins results of further samples.

no.	Compound	Calb FLC	MLL AF4-AF9 inh	LANA-H2B inh	Vif TR-FRET	RanGTP-Imp inh	Beta apoptosis	T cruzi repl	Bfl-1 A1 inh
1	CC(C)C1NCCc2c1sc1ccccc21 (stereo not given)	-4	3.9	-1.0	.	3.0	-6	9	?
2	NC(=O)CC(NC(=O)c1cccc(Br)c1)c1ccc(N2CCC(N3CCCC3)CC2)c([N+](=O)[O-])c1 (stereo not given)	-15	7.7	-5.3	.	-0.2	-4	-4	0.6
3	CCN1C(=O)[C@H]2[C@@H](c3ccc(-c4ccc(Cl)c(Cl)c4)cc3)N3CCCC[C@@]3(C(=O)OC)[C@H]2C1=O	-3	2.6	-1.1	.	1.1	9	-3	-1.5
4	COc1ccc(CCNC(=O)CN(c2ccc(OC)c(OC)c2)S(C)(=O)=O)cc1OC	-6	.	0.5	?	-1.8	-6	-5	-1.1
5	CSc1ccc(NC(=O)C(C)N2CCN(C)CC2)cc1 (stereo not given)	0	3.5	-5.3	0%	2.6	-2	42	0.8
6	COc1ccccc1C(=O)Nc1ccc(-c2nnn(CC(=O)N3CCN(C(=O)c4ccco4)CC3)n2)cc1	3	-0.1	-3.4	-6%	-2.5	2	-6	-0.5
7	CCC(C)(C)NC(=O)CN(Cc1cccs1)C(=O)CCC(=O)Nc1nccs1	-2	-28	-3.3	?	2.2	0	23	0.3
8	Cc1nc2ccccc2n1/N=C/c1ccc([N+](=O)[O-])o1	-47	-22	-5.1	.	-1.3	-6	42	1.7
9	O=S(=O)(Nc1cccc(-c2cn3cccnc3n2)c1)c1ccc(F)cc1	-4	-3.7	-1.8	-8%	4.2	1	4	-0.6
10	O=C(NCC1CCCN1S(=O)(=O)c1cccs1)C(=O)Nc1ccc(F)cc1F (stereo not given)	2	-4.5	1.2	1%	5.3	-4	-5	0.6
11	CCCN1CCN(C(=S)Nc2ccc(S(N)(=O)=O)cc2)CC1	-21	-8.0	1.4	?	2.1	0	-5	1.1
12	Cc1cccc(Nc2nnc(SC3CCOC3=O)s2)c1C (stereo not given)	-3	0.5	-1.9	-1%	1.1	-4	-14	0.9
13	CC(C)Cn1c(CN2CCCCC2C)nc2c1c(=O)n(C)c(=O)n2C (stereo not given)	7	-2.2	4.6	1%	?	21	6	-0.4
14	CCOC(=O)C(=O)Nc1ccc(S(=O)(=O)Nc2nccs2)cc1	1	-8.5	7.4	.	-4.5	.	-20	1.1
15	CS(=O)(=O)c1ccc(Oc2ccc(-c3nnco3)cc2)c([N+](=O)[O-])c1	19	1.1	9.3	.	3.5	-8	4	0.3
16	Cc1ccc(-c2cccc(C3CC=CC4C3C(=O)N(Cc3ccccc3)C4c3ccc(C(F)(F)F)cc3)c2)cc1 (stereo not given)	-23	-5.8	-0.3	?	-0.4	-2	8	0.4
17	COc1ccc(CCNC(=O)CSc2ccc(-c3cccs3)nn2)cc1OC	9	1.1	-2.6	12%	0.4	-5	-1	-0.1
18	Cc1ccc(OCc2nc(-c3ccccn3)n[nH]2)cc1	26	.	3.4	14%	-3.9	.	-44	-2.5
19	COC/C=C/C1=CC2=CC(=O)C(C)(OC(=O)CCC(=O)OC)C(=O)C2=CO1 (stereo not given)	1	.	13	1.4µM*	4.6	-6	-7	0.9
20	O=c1[nH]ncc2c3ccccc3n(Cc3ccc(F)cc3)c12	-2	.	2.9	4%	1.0	-6	5	0.5
21	CCOc1ccc(-c2cn(S(=O)(=O)c3cccc4nsnc34)nc2N)cc1	4	.	3.0	?	2.0	-5	14	-0.5
22	CC(C)Oc1ccccc1C1(c2ccccc2)NC(=O)NC1=O (stereo not given)	-2	-2.8	-2.0	.	-3.5	.	-5	-0.2
23	CCOC(=O)CCN1C(=O)c2ccccc2Sc2ncccc21	2	-30	-0.8	-2%	-3.9	-6	-1	0.6
24	Cc1cccc(C)c1NC(=O)C1CCCN1C(=O)Nc1cccc(F)c1 (stereo not given)	-9	-1.5	2.5	.	0.2	1	1	-0.3
25	COC(=O)c1cc(OC)c(OC)cc1NC(=S)N1CCN(c2ccccn2)CC1	4	-2.4	2.5	-3%	0.2	0	26	0.0
26	O=C(N/N=C/c1cccnc1)C(=O)N1CCCCCC1	-2	-0.2	-4.3	-3%	-0.3	2	-9	0.8
27	C/C(N)=C(/C#N)C(=O)CSc1nc2cc(Cl)ccc2c(=O)n1-c1ccc(C)cc1	1	.	2.1	.	0.7	17	18	0.5
28	CCCS(=O)(=O)c1c(S(=O)(=O)CCC)c2cc(-c3ccncc3)ccn2c1C(=O)OC	16	1.6	4.7	0%	-1.9	10	28	2.4
29	CCSc1ccccc1C(=O)NCc1ccc(OC)cc1	1	.	6.3	2%	-0.2	-2	-13	1.3
30	CCN(CC)C(CNC(=O)CSc1nnnn1-c1cccc(F)c1)c1ccco1 (stereo not given)	.	2.1	1.3	-4%	.	2	.	0.2
31	O=C(Nc1cccc(Cl)c1)c1ccc2c(c1)OCCO2	-26	3.3	2.4	.	-1.4	-4	1	-6.2
32	CN(CC(=O)Nc1ccc(Cl)cc1)C1CCCCC1	-27	-5.0	2.0	.	-1.0	-2	16	0.2
33	Cc1cc(C(=O)COc2cc(F)ccc2[N+](=O)[O-])c(C)n1CC1CCCO1 (stereo not given)	.	11	-1.4	.	.	1	.	-0.5
34	C=CCOc1ccc(CNn2c(C)n[nH]c2=S)cc1OC	-6	.	-1.2	-3%	8.4	2	-7	-0.1
35	O=C(NCC(=O)N1CCCCCCC1)c1ccccc1Br	-5	-1.1	-25	0%	.	-4	-6	0.7
36	CCOC(=O)[C@@H]1[C@H]2COc3ccc(Br)cc3[C@@H]2N2C(=O)N(c3cccc(F)c3)C(=O)[C@]12C	11	-1.4	-0.3	.	-2.0	.	-2	1.4
37	CCc1nn(CC(=O)NCc2cccnc2)c(=O)c2cc3occc3n12	-3	-9.1	2.8	.	3.7	2	9	0.9
38	CC12CCC(C(=O)NC3CCCCC3)([C@H](Br)C1=O)C2(C)C (stereo not given in full)	1	4.2	-2.9	4%	0.1	-9	9	0.2
39	CC(C)CCNC(=O)CN(C(=O)CCC(=O)Nc1ccccn1)c1ccc(F)c(Cl)c1	-3	-1.7	-1.4	-11%	2.4	-1	1	-0.4
40	CC1(C)NC(=O)N(CC(O)Cn2c3ccccc3c3ccccc32)C1=O (stereo not given)	-5	9.5	-2.7	12%	-1.2	-3	1	0.0
41	Cc1ccc(-c2nnc3ccc(SCC(=O)Nc4cc(C)on4)nn23)cc1	-1	.	.	7%	-5.4	.	9	.
42	Cn1c(SCC(=O)c2c(N)n(C)c(=O)n(C)c2=O)nnc1-c1ccccc1F	-25	8.5	6.2	.	-3.4	-2	6	-0.5
43	COc1cc(OC)nc(Oc2cccc(Cl)c2C)n1	10	-3.5	-2.2	.	1.6	-2	-27	0.6
44	CCOc1ccc(CN2C(=O)c3ccccc3C2C(=O)NCC2CCCO2)cc1 (stereo not given)	-3	0.2	-1.8	.	-6.4	-5	-22	1.5
45	O=C(NCCCO)C(=O)NCC(c1ccc2c(c1)OCO2)N1CCN(c2ccc(F)cc2)CC1 (stereo not given)	-4	-4.4	-4.3	.	3.0	-1	3	0.2
46	COc1ccccc1OCC(=O)Nc1ccc(S(=O)(=O)Nc2cc(C)nc(C)n2)cc1	2	.	0.4	0%	3.6	-1	-22	1.7
47	CS(=O)(=O)N1CCc2cc(C(=O)Nc3ccccc3Br)ccc21	4	1.3	-3.1	0%	-5.6	2	-10	0.5
48	COc1ccc(/C=N/NC(=O)c2[nH]c(C)c(C(=O)N/N=C/c3ccc(OC)cc3)c2C)cc1	-12	.	.	.	13	9	-27	-0.5
49	COc1cc(C(=O)NC(C)CCn2cccn2)ccc1OC1CCN(C(C)=O)CC1 (stereo not given)	-6	-2.2	4.8	.	?	3	-13	0.6
50	COc1ccc(OC)c(-c2csc(NC(=O)COC(=O)C3(C)CC3(Cl)Cl)n2)c1 (stereo not given)	.	-2.9	11	3%	.	5	.	-0.3

The results go on:
no.	Compound	Calb FLC	MLL AF4-AF9 inh	LANA-H2B inh	Vif TR-FRET	RanGTP-Imp inh	Beta apoptosis	T cruzi repl	Bfl-1 A1 inh
51	COC(=O)NCCc1cc(OC)c(OC)cc1S(=O)(=O)N1CC(=O)Nc2ccccc21	6	2.3	-3.4	-1%	2.2	-2	-4	0.7
52	COc1ccc(-c2cc(C)nc3c(-c4ccccc4)cnn23)cc1	47	1.1	.	?	-5.8	.	14	.
53	COc1ccccc1NC(=O)c1ccc(COc2ccccc2Br)o1	1	-0.5	-5.4	1%	?	0	0	-0.5
54	NC(=O)c1ccccc1NC(=O)c1ccc2ccccc2c1	-18	-5.5	-0.9	-4%	-2.6	.	-1	-7.5
55	Cc1ccc2nc(C3CCCN(C(=S)Nc4ccccc4C)C3)[nH]c2c1 (stereo not given)	-2	.	-8.6	?	?	9	67*	-0.6
56	Cc1occc1-c1nnc(SCC(=O)NCc2cccs2)n1-c1ccc(F)cc1	-7	.	-1.0	3%	0.5	4	-3	-1.0
57	COc1ccc([C@H]2CC(=O)C=C(c3cc(OC)ccc3OC)C2)cc1	.	2.0	-4.0	.	.	5	.	0.1
58	Cc1noc(C)c1C(=O)Nc1ccc(S(=O)(=O)N2CCCCC2)cc1	-9	-0.1	2.7	-2%	1.0	-3	-3	0.0
59	CS(=O)(=O)N(CC(=O)N1CCc2ccccc2C1)c1ccc(Br)cc1	-10	2.5	9.2	.	0.3	-6	17	-0.3
60	CCCNS(=O)(=O)c1ccc(OCC(=O)N2CCCC2)cc1	-9	-0.2	-3.0	2%	-1.3	2	5	-0.1
61	O=C(Nc1cccnc1Cl)c1cc(-c2ccc(F)cc2)on1	-12	-0.9	0.4	.	2.7	-7	-2	-4.7
62	CC(C)C(=O)Nc1nnc(-c2ccccc2)o1	-6	-2.1	-1.1	-3%	-2.7	3	-6	-0.1
63	COC(=O)c1c(N2C(=O)[C@H]3[C@@H](C2=O)[C@]2(C(=O)Nc4c2ccc(C)c4C)N2CCC[C@@H]32)sc(C)c1C	4	11	3.4	?	?	0	0	1.0
64	Cc1ccc(CNC(=O)c2cncc(Br)c2)cc1	-12	-2.0	1.9	0%	0.1	-4	-4	0.9
65	CC(C)=CCN1CCN(Cc2ccc3nsnc3c2)CC1CCO (stereo not given)	4	-0.6	-4.0	23%	-3.4	3	40	0.2
66	OCCNc1nc(N2CCCC2)nc(N2CCCC2)n1	-20	.	7.4	-2%	-0.7	-11	5	0.6
67	c1ccc(-n2ncc3c(N4CCN(c5ccccn5)CC4)nc(N4CCCCCC4)nc32)cc1	0	.	6.5	-1%&-1%	0.3	-5	-9	0.9
68	CSC(=NC#N)N1CCN(c2ccc(Cl)cc2)CC1	19	.	2.4	33%	3.0	3	-28	0.4
69	CN(C(=O)COc1ccc(Cl)cc1Br)C1CCCCC1	-5	-0.8	53*	-2%	2.5	.	7	-0.6
70	CC(C)c1ccc(NC(=S)NNc2ccc(Cl)c(C(=O)O)c2)cc1	-11	-0.9	-5.8	0%	2.2	-2	14	-0.3
